# From PubChem
# D2 PAM – Beta-Arrestin HTS for Positive Allosteric Modulators of the Human D2 Dopamine Receptor: Potentiators; D(2) dopamine receptor (Homo sapiens), P14416; potentiation, % (concentration not given with the values); hit rate 0.23% among 360,000; AID 624464, 2012; DiscoveRx D2 beta-arrestin cells, luminescence, 90 min; 100% = 57 uM dopamine signal; active = potentiation of 50% or more; inconclusive = 30% to 50%; inactive = 30% or less;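 note: compound concentration not given in the record; tested on top of an EC20 dose of dopamine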
# Target sequence (P14416 whole entry, looked up): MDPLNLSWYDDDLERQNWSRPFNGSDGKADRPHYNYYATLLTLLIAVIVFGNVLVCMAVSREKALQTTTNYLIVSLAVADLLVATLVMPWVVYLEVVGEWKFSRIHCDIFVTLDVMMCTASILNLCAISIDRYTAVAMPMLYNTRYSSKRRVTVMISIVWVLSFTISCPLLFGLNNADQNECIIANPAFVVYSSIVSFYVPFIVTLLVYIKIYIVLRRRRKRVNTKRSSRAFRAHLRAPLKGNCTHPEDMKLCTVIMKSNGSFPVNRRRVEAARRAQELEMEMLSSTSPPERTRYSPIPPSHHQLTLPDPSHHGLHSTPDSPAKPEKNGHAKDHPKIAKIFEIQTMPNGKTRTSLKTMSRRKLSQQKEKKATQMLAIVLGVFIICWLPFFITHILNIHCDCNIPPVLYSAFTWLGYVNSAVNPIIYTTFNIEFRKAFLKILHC
#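 PathHunter beta-arrestin assay in DiscoveRx D2 cells. Compounds were added with an EC20 of dopamine (50 nM final) for 90 min at 37 deg C. Luminescence was read 1 h after detection reagent, with 57 uM dopamine as the EC100 control.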
# TRPML1 agonist – qHTS for Agonists of the Human Mucolipin Transient Receptor Potential 1 (TRPML1). Mucolipin-1 (Homo sapiens), Q9GZU1. activation, % (concentration not given with the values). hit rate 0.12% among 410,000. TRPML1-expressing cells, Ca2+ dye fluorescence, FDSS; host cell line not named in the record; reference of the full effect not given here; in the data active = activation above about 50%; inconclusive = about 30% to 50%; inactive = below about 30%; note: 0% is about no effect; the text of the record puts the active cut at 80%
# Target sequence (Q9GZU1 whole entry, looked up): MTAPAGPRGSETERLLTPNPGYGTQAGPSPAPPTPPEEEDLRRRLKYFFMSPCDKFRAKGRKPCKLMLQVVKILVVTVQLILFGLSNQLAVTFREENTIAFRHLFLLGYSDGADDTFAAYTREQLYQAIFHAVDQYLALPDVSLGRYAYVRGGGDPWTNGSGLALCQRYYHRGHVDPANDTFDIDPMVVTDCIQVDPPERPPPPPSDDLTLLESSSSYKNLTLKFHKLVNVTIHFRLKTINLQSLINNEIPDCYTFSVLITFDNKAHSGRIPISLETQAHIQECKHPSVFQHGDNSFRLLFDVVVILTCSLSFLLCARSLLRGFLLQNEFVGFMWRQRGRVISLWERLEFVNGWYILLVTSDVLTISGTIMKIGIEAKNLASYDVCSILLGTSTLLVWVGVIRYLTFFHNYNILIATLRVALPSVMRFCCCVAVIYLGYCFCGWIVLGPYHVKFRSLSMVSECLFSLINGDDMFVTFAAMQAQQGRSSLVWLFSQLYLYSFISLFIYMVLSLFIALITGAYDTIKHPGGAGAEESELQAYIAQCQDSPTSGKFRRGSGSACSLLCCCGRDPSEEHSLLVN
#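 Calcium fluorescence on an FDSS kinetic reader gave the read-out. Tet-induced TRPML1-DL cells were plated overnight, dye-loaded (Ca8 with quencher, 45-90 min, room temperature, dark), then read 110 s after compound addition, and again 110 s after 4uM final 54-4 (EC80).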
# Six1-Eya2 blk – qHTS Assay for Inhibitors of the Six1/Eya2 Interaction; activity change, % (test concentration not listed); AlphaScreen GST-Six1/His-Eya2 binding, biochemical; stronger effect = lower value; control for the full effect not named in the record; hit rate 0.56% among 360,000; Homeobox protein SIX1 (Homo sapiens) + Protein phosphatase EYA2 (Homo sapiens), …; AID 651725, 2012; in the data active = activity change below about -65%; inconclusive = about -30% to -65%; inactive = above about -30%; note: % is set by controls: 0 for no effect and ±100 for the full control effect; compound concentration not given in the record
#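 Compounds are tested against tagged Six1 and Eya2 proteins bridged by glutathione donor and nickel acceptor beads; after a one-hour incubation at 37 °C without light, AlphaScreen emission is recorded.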
# D2 ag – Beta-Arrestin HTS for Positive Allosteric Modulators of the Human D2 Dopamine Receptor: Agonists. D(2) dopamine receptor (Homo sapiens), P14416. DiscoveRx PathHunter D2 beta-arrestin, luminescence, 90 min; 100% = 57 uM dopamine signal. activation, % (concentration not given with the values). hit rate 0.084% among 360,000; in the data active = activation above about 40%; inconclusive = about 15% to 40%; inactive = below about 15%; note: compound concentration not given in the record; the text of the record calls up to 30% inactive
#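 DiscoveRx PathHunter D2 beta-arrestin cells (2,100/well) attached overnight, then compound-stimulated 90 min at 37 C in HBSS/10 mM HEPES/0.1% Tween-20 buffer; beta-galactosidase complementation read by luminescence after 1 h at ambient temperature. Dopamine 57 uM final (EC100) as control.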
# TRPML1 blocker – qHTS for Inhibitors of the Human Mucolipin Transient Receptor Potential 1 (TRPML1) | hit rate 0.02% among 390,000 | TRPML1-inducible cells, Ca2+ dye fluorescence, FDSS; stronger effect = lower value; inhibition of EC80 agonist-evoked calcium signal | activity change, negative = inhibition, % (test concentration not listed); in the data active means activity change below about -50%; inconclusive means about -30% to -50%; inactive means above about -30%;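 note: stimulus is agonist 54-4 at its EC80 concentration; % is set by controls: 0 for no effect and ±100 for the full control effect; compound concentration not given in the record; the text of the record puts the active cut at -80%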
#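 TRPML1-DL cells, Tet-induced overnight (~16 h, 37 °C) at 1,500 cells/well, were loaded with Ca8 no-wash dye plus quencher for 45-90 min at room temperature. Compounds were pinned during FDSS kinetic reading; agonist 54-4 at EC80 (4 uM final) then added.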
# PINK1 modulator – A Quantitative High throughput Screen to Identify Chemical Modulators of PINK1 Expression; PINK1 immunofluorescence, high-content cytometry, 24 h; Potency, µM (top dose mostly 76.6 µM), for the others: top-dose activation (PINK1 increase), actives largely listed as activators; hit rate 0.2% among 410,000; active = well fitted activation curve with a large enough effect; inconclusive = small, poorly fitted or top-dose-only effect; inactive = flat fitted curve, though single readings scatter; cell line not stated here;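 note: potency is the fitted concentration of half-maximal effect; % of control where 0% means no effect; nearly all actives have a fitted effect of over 65% in size; a mitochondrial uncoupler was the plate control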
#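 Compound titrations (5 concentrations, 24 h) on a stable cell line; DMSO and CCCP controls. Endpoint: fixed-cell PINK1 immunofluorescence with mitochondrial, cell and nuclear markers, scanned by microplate cytometer.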
# * = called active by the depositor; ? = inconclusive; . = no result given; & = joins results of further samples; [ ] = remark or other dose.
SMILES,D2 PAM,TRPML1 agonist,Six1-Eya2 blk,D2 ag,TRPML1 blocker,PINK1 modulator
COc1cccc(-c2cnc(C(O)c3cccc(C)c3C)[nH]2)c1 (configuration not stated),-13,-1.2,10,-6.3,.,-0.2%
CC(C)CNc1nc(NC(C)(C)C)nc(Oc2ccc(=O)[nH]n2)n1,1,0.2,5,0.8,4,1.0%
COCCNc1nc(NCc2ccccc2F)c2sccc2n1,-12,-1.1,1,-2.2,.,0.8%
COc1cc(NC(=O)CCc2nnc3ccc(N4CCCC4)nn23)cc(OC)c1OC,-1,-0.7,1,-4.2,-25,-1.0%
C[C@H](NC(=O)[C@@H]1CCC(=O)N1Cc1ccco1)c1ccccc1,-3,-0.5,4,-1.1,-26,-0.7%
CCOc1cc(CNCC2CCCO2)cc(Br)c1OCC(N)=O (configuration not stated),-10,-0.4,-2,-0.7,8,-0.6%[38.3 µM]
CCOc1ccc(N2C(=O)C3Sc4[nH]c(=O)sc4C(/C=C/c4ccccc4)C3C2=O)cc1 (configuration not stated),-7,0.7,-19,-5.9,5,4.3%
Cc1nc2ccc(S(=O)(=O)N(C)CC(=O)NCCc3ccccc3)cc2s1,-12,-1.2,4,4.1,-3,-2.1%
O/N=C\c1ccc2noc(-c3ccc(Cl)cc3)c2c1,-1,3.8,1,?,9,3.9%
CCCC(c1nnnn1Cc1cccs1)N1CCN(c2ccc(OC)cc2)CC1 (configuration not stated),-20,1.8,?,0.0,6,2.3%
Cc1nc2ccc(NC(=O)c3nn(C(C)C)c(=O)c4ccccc34)cc2s1,20,1.5,4,6.5,-15,?
COc1ccc(CC(=O)NNS(=O)(=O)c2ccccc2)cc1OC,-3,-0.8,7,-2.5,3,3.0%
COc1ccc(CN(CC2CCC(C(=O)O)CC2)C(=S)Nc2cc(C)cc(C)c2)cc1 (configuration not stated),4,-0.3,-4,-2.0,-9,-1.6%
Cc1ccc(CN2CCN(Cc3nc(C(C)C)cs3)CC2CCO)cc1 (configuration not stated),-17,1.2,1,-2.0,-16,0.3%
Cc1cc(C)cc(OCC(=O)N(Cc2ccc(Cl)cc2)C2CCS(=O)(=O)C2)c1 (configuration not stated),.,-0.5,.,.,-2,0.0%
O=Cc1ccc(OC(=O)c2cccnc2)cc1,-5,-0.4,-65*,-2.0,-9,0.4%
N#Cc1ccc(NC(=O)COC(=O)C2Cc3ccccc3CN2C(=O)c2ccccc2)cc1 (configuration not stated),16,-0.1,3,2.2,22,9.6%
O=C(CSc1nc2ccsc2c(=O)n1-c1ccccc1)N1CCCC1,-11,2.4,4,-1.8,9,-9.1%[38.3 µM]
CCOc1ccc(C(=O)NCc2ccco2)cc1OC,-4,0.1,-4,-1.6,24,1.1%
CCCOC(=O)c1ccc(OCC(O)CN2C(=O)NC(C)(C)C2=O)cc1 (configuration not stated),-3,1.2,2,-0.7,-6,-0.2%
CC(=O)Nc1cccc(-c2ccnc3c2CC(C(=O)Nc2ccc(F)c(Cl)c2)O3)c1 (configuration not stated),-9,1.4,?,3.5,6,3.4%
O=C(NCc1ccccc1)c1ccc(Br)o1,-14,-0.4,2,-3.5,7,0.2%
CCC(=O)c1ccc(OCC(=O)OC(C)C(=O)N2CCc3ccccc32)cc1 (configuration not stated),17,-1.0,0,0.3,25,1.3%
COc1ccccc1N1CCN(C(=O)CSc2nnc(NC(=O)c3ccco3)s2)CC1,-9,-0.7,-7,-2.4,-5,3.4%
COc1ccc(C2CC(c3ccc(F)cc3)=NN2c2ccccc2)cc1OC (configuration not stated),11,0.3,4,?,-5,3.7%
# Further structures follow:
SMILES,D2 PAM,TRPML1 agonist,Six1-Eya2 blk,D2 ag,TRPML1 blocker,PINK1 modulator
COc1cc(C(=O)N2CCN(c3cccc(Cl)c3)CC2)ccc1OCC(=O)N1CCOCC1,-7,-0.1,-1,-0.4,12,0.5%
Cc1c(Cl)cccc1NC(=O)N1CCN(C(=O)c2ccco2)CC1,-4,0.4,-8,-3.6,7,1.1%
COCCCNC(=O)C1CCC(CNS(=O)(=O)c2ccc(Cl)cc2)CC1 (configuration not stated),6,-0.4,-2,-11,-13,0.2%
CC(=O)Nc1ccc(N=Cc2ccc[nH]2)cc1,-10,-0.3,1,-0.9,-5,-2.3%
CC1(C(=O)NS(=O)(=O)c2cccc(OC(F)F)c2)CCN1C(=O)CCc1cccs1 (configuration not stated),-7,-0.2,4,2.9,.,-0.1%
O=C(Nc1c(Cl)cc2c(c1Cl)Cc1cc([N+](=O)[O-])ccc1-2)C(Cl)Cl,-8,1.6,-10,4.7,10,3.6%
Cc1cc(Cl)ccc1C(=O)C1CCCN(C(=O)c2cscn2)C1 (configuration not stated),-7,-0.4,-5,0.3,14,-0.5%
Cc1cc(Oc2ccccc2)nc(SCC(=O)Nc2ccc(Cl)c(Cl)c2)n1,-4,-0.1,0,-3.7,2,0.4%
COc1ccccc1C(=O)Nn1c(C2CCC2)nc2ccccc2c1=O,-12,3.0,3,0.7,-10,-2.8%[38.3 µM]
O=c1c2ccccc2nc(COc2ccccc2)n1/N=C/c1cc([N+](=O)[O-])ccc1O,-24,-0.5,-89*,-7.3,-3,23%
O=C(c1cccs1)n1nc(-c2ccccc2)nc1NCc1ccc(F)cc1,-20,2.6,6,-4.6,19,-0.8%[38.3 µM]
CC1(C)NS(=O)(=O)Oc2ccccc21,-11,-0.1,-2,-1.9,48,1.3%
CC(=O)N1c2ccccc2[C@@H](C)[C@@H]1C,1,-0.7,-2,-3.5,-7,-0.2%
Cc1cccc(-c2noc(CCCOc3ccc(Cl)cc3Cl)n2)c1,-18,2.0,66,-3.0,1,1.7%
COc1ccccc1N1CCN(C(=O)N2CCOCC2)CC1,-2,-1.2,4,0.3,-7,5.0%
CC(=O)C1=C(O)C(=O)N(CCc2ccccc2)C1c1ccccc1[N+](=O)[O-] (configuration not stated),-5,1.8,5,1.5,6,5.1%
COC(=O)c1cccc(CN2C(=O)SC(Nc3ccc(C)cc3)C2=O)c1 (configuration not stated),-11,3.0&1.9,-4,-5.4,8&21,2.0%&0.4%
CCOC(=O)C1CCCN(C(=O)c2ccccc2OC(F)(F)F)CC1 (configuration not stated),-5,-0.6,2,1.4,.,0.3%
Cc1ccc(S(=O)(=O)CC(=O)c2ccc(C(C)(C)C)cc2)cc1,-12,0.3,5,-1.3,14,-1.0%
CCN(CC)C(=O)c1ccc2c3c(cccc13)C(=O)N(CCc1ccc(OC)c(OC)c1)C2=O,?,-0.1,-19,?,9,5.4%
CCn1c(SCC(=O)NC(C)(C)C)nnc1-c1ccoc1C,-3,-0.2,0,-3.4,5,0.6%
O=C1N2CCSC2=NC1(Nc1ccccn1)C(F)(F)F (configuration not stated),-33,?,1,-1.3,-8,-0.4%
CC1CCN(c2ccc(C(=O)O)cc2NS(=O)(=O)c2ccc(Br)cc2)CC1,6,-1.6,0,-6.8,42,-0.9%
Nc1nc(COc2ccccc2C=O)nc(Nc2ccccc2)n1,-3,0.3,8,1.0,-4,3.4%
O=C(Cn1cccc1C(=O)c1ccccc1)NCCCc1ccccc1,-5,-0.1,-2,-4.3,2,-0.7%

# 3 compounds from above, ordered by the value under D2 PAM, high to low.
structure | D2 PAM | Six1-Eya2 blk | D2 ag | TRPML1 blocker | PINK1 modulator
O/N=C\c1ccc2noc(-c3ccc(Cl)cc3)c2c1 | -1 | 1 | ? | 9 | 3.9%
COc1ccccc1N1CCN(C(=O)N2CCOCC2)CC1 | -2 | 4 | 0.3 | -7 | 5.0%
COc1ccccc1C(=O)Nn1c(C2CCC2)nc2ccccc2c1=O | -12 | 3 | 0.7 | -10 | -2.8%[38.3 µM]

# Other entries
SMILES,D2 PAM,TRPML1 agonist,Six1-Eya2 blk,D2 ag,TRPML1 blocker,PINK1 modulator
COc1ccc(C(=O)C2CCCN(C(=O)c3n[nH]c4c3CCCC4)C2)cc1OC (configuration not stated),-1,-0.7,-13,1.7,6,0.2%
CCCc1cc(=O)[nH]c(SCC(=O)Nc2ccc(C)c(S(=O)(=O)N3CCCCC3)c2)n1,4,1.1,-17,0.8,1,1.9%
CCNC(=O)NC(=O)CSc1ccc(S(=O)(=O)N(C)C2CCCCC2)cn1,-4,3.3,0,2.5,-6,3.7%
O=C(c1ccc(Cl)cc1Cl)N1CCOCC1,-3,0.0,-2,0.7,15,2.4%
CCOC(=O)N1CCc2c(sc(NCc3sccc3C)c2C(=O)Nc2cc(OC)ccc2OC)C1,.,-0.3,.,.,18,2.3%
Cc1nc(NC(=O)C2CC2)sc1C(=O)Nc1cccc(Cl)c1,-3,-0.2,-1,0.6,18,2.8%
CCOC(=O)C1CCCN(c2cc(=O)n(C3CCCCC3)c(=O)[nH]2)C1 (configuration not stated),-13,1.0,15,-8.5,0,0.9%
CCc1ccc(NC(=O)N(Cc2ccco2)C(C)c2cccs2)cc1 (configuration not stated),-9,3.4,-2,-4.0,62,1.7%[38.3 µM]
Fc1ccccc1-c1csc(=Nc2cccnc2)n1CC1CCCO1 (configuration not stated),-12,2.1,2,0.4,2,1.8%
CCN=C1SC(CC(=O)Nc2ccc3c(c2)OCO3)C(=O)N1CC (configuration not stated),-5,-0.4,-9,-7.8,2,1.8%
O=C(NCCN1CCC(n2c(=O)[nH]c3ccccc32)CC1)c1ccc(C(F)(F)F)cc1C(F)(F)F,.,-0.7,5,.,.,0.7%
Cc1c(C(=O)N(C)C)sc2c1c(=O)n(-c1ccc(Cl)c(Cl)c1)c(=O)n2CC(=O)C(C)(C)C,.,1.0,.,.,7,1.4%
COc1ccc(CC(=O)NCc2n[nH]c(=S)n2-c2ccccc2)cc1,17,3.9,2,0.1,-9,3.8%
Cc1nnsc1-c1nnc(SCC(=O)c2ccc(F)cc2)n1C1CC1,4,-0.3,25,-14,-5,2.2%

# Given field by field: entries from further up.
SMILES: CCOC(=O)C1CCCN(c2cc(=O)n(C3CCCCC3)c(=O)[nH]2)C1 (configuration not stated)
  D2 PAM: -13
  TRPML1 agonist: 1.0
  Six1-Eya2 blk: 15
  D2 ag: -8.5
  TRPML1 blocker: 0
  PINK1 modulator: 0.9%

SMILES: CCc1ccc(NC(=O)N(Cc2ccco2)C(C)c2cccs2)cc1 (configuration not stated)
  D2 PAM: -9
  TRPML1 agonist: 3.4
  Six1-Eya2 blk: -2
  D2 ag: -4.0
  TRPML1 blocker: 62
  PINK1 modulator: 1.7%[38.3 µM]
